# AID504770 = growth inhibitors of E. coli YBA685 in a screen for V. cholerae RctB (chromosome II replication) inhibitors | E. coli YBA685 rctB-dependent plasmid, OD600 growth, 3 h; active compounds read low | z-score (concentration not given with the values) | 0.27% of 130,000 active | AID 504770;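 active = z-score under -2 on both plates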;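 note: wells of about 30 µL received 100 nL stock; score is relative to mean and SD of the test wells; the first replicate is given; strong numbers were not always called active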
# CapD inh = CapD enzyme inhibition; purified CapD enzyme, fluorescence intensity read-out; active compounds read low; some hits fall short of the stated cut; z-score (no concentration beside the values); 0.23% of 140,000 active; AID 492967;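 active = z-score under -4 in either of two replicates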;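 note: stock transfer was 100 nL into about 40 µL; score is relative to mean and spread of the plate; one replicate is shown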
# * marks the source's active call; other numbers are inactive results; / = no result given; & = joins results of further samples. Some of the compounds tested; the hit share may differ from the screen's.
canonical_smiles	CapD inh	AID504770
COc1cc2sc(C)nc2c2ccccc12	-0.68	1.4
c1ccc(-c2noc3c2CNCC3)cc1	/	-0.7
Cc1cccc(CCNS(=O)(=O)c2cc3c(cc2C)NC(=O)CO3)c1	-0.28	-1.1
CC(=O)N1N=C(c2c(-c3ccccc3)c3cc(Br)ccc3[nH]c2=O)CC1c1ccc([N+](=O)[O-])cc1 (configuration not stated)	0.29	/
C=C1SC(Nc2c(C)cccc2C)=NC1(C)C	-0.3	/
COc1ccc(OC)c(NS(=O)(=O)c2ccc(NC(=O)c3ccco3)cc2)c1	-0.36	-1.1
O=S(=O)(NCCc1ccccc1)c1ccccc1	0.18	-0.2
COc1ccc(C/C(N)=N/O)cc1OC	0.085	-0.25
Cc1ccc(C(=O)CSc2n[nH]c(-c3ccncc3)n2)c(C)c1	-0.19	/
O=S(=O)(c1ccc(-c2cc(C(F)(F)F)on2)s1)N1CCOCC1	0.065	2.1
COC(CNC(=O)c1cc(S(=O)(=O)N2CC(C)CC(C)C2)ccc1Sc1ccc(Br)cc1)OC (configuration not stated)	-0.005	/
S=c1nc[nH]c2ccsc12	/	-0.45
COC(=O)CSc1nc2ccccc2[nH]1	0.29	-1.2
N#CC1=C(N)OC2=C(C(=O)CC(c3ccccc3)C2)C1c1ccccc1Br (configuration not stated)	-0.81	/
CC1SC(=Nc2ccc(C(=O)O)cc2)NC1=O (configuration not stated)	/	0.85
c1ccc(-c2cn[nH]c2N2CCOCC2)nc1	0.55	-0.3
O=C(NC1CCCCC1)C(c1ccco1)N(Cc1ccccc1)C(=O)Cn1nnc2ccccc21 (configuration not stated)	/	0.5
CSc1cccc(NC(=O)c2noc3c2CSc2ccccc2-3)c1	10	0.6
C/C(N)=C(/C#N)C(=O)CSc1nnc(-c2ccccc2)o1	/	-0.1
Cc1ccccc1N1C(=O)c2cc(S(N)(=O)=O)c(Cl)cc2NC1C (configuration not stated)	-0.76&-0.12	-0.7
Cc1ccc(C2CC(C(F)(F)F)n3ncc(C(=O)Nc4cc(Sc5ccc(Br)cc5)cc([N+](=O)[O-])c4)c3N2)cc1 (configuration not stated)	0.67	/
FC(F)(F)c1cccnc1N1CCNC1=S	0.45	0.3
O=C(Nc1ccc(Br)cc1)c1ccc2nsnc2c1	-0.35	2.6
O=C1NC2(C(=O)O)CCC(=O)N2c2ccccc21 (configuration not stated)	/	0.2
COc1ccc(-c2cc(C(F)(F)F)nc(SCC(=O)N3CCc4ccccc43)n2)cc1OC	0.26	1.2

# Single records, from the list above:
# O=C(NC1CCCCC1)C(c1ccco1)N(Cc1ccccc1)C(=O)Cn1nnc2ccccc21 (configuration not stated) across the screens: CapD inh = /; AID504770 = 0.5
# C=C1SC(Nc2c(C)cccc2C)=NC1(C)C across the screens: CapD inh = -0.3; AID504770 = /
# Cc1ccc(C2CC(C(F)(F)F)n3ncc(C(=O)Nc4cc(Sc5ccc(Br)cc5)cc([N+](=O)[O-])c4)c3N2)cc1 (configuration not stated) across the screens: CapD inh = 0.67; AID504770 = /

# Continued:
canonical_smiles	CapD inh	AID504770
Cc1ccc(C(=O)C2C(=O)C=C(c3ccc(C)cc3)OC2=O)cc1 (configuration not stated)	-2.6	-0.35
Cc1ccc2nc(Nc3ccc(F)cc3C)c3nncn3c2c1	-1.6	2
CCc1cc2c3c(c(=O)oc2cc1OC(C)C(=O)OC)CCCC3 (configuration not stated)	43	/
CCn1c(=O)cc(SCC(=O)NCCCN2CCOCC2)c2ccccc21	6.2	-0.35
COc1ccc(C(CC(=O)O)NC(=O)Cc2ccccc2)cc1 (configuration not stated)	0.15	-0.85
Cc1ccnc(NC(c2ccc(Cl)cc2)c2c(C)[nH]c3ccccc23)c1 (configuration not stated)	-0.89	3.4
N#CCN1CCN(Cc2ccccc2)CC1	/	-0.6
C=CCNC(=O)CC12CC3CC(CC(Br)(C3)C1)C2	-0.66	-1.5
CC(C)=NNC(=O)C1COc2ccccc2O1 (configuration not stated)	/	1.1
O=C(c1ccccc1F)N(Cc1cccs1)c1ccc(O)cc1	/	0.3
Cc1cc(NC(=O)Cn2c(NCc3ccccc3)nc3ccccc32)no1	/	-0.15
O=C(O)C1CCCN1C(=O)/C=C/c1ccc(F)cc1 (configuration not stated)	0.035	0.1
O=C(Nc1cccc2cnccc12)c1cc(Cl)cc(Cl)c1	0.02	-0.25
S=c1nc(NC2CC2)c2ccccc2[nH]1	0.32	-0.75&-0.3
O=c1[nH]cnc2sc3c(c12)CCSC3	/	-0.1
CNc1c(NS(=O)(=O)c2ccc(OC)cc2)c(=O)oc2ccccc12	0.19	-0.25
OC(COCc1ccccc1)CN1CCc2ccccc2C1 (configuration not stated)	0.83	-0.1
Cc1ccc(NCc2nnc(SCC(=O)N3c4ccccc4CCc4ccccc43)o2)c(C)c1	/	0.35
COc1ccccc1OCC(=O)NCCCN1CCOCC1	/	-0.5
O=C(NCc1cccnc1)c1ccccc1NC(=O)c1c(F)cccc1F	0.96	-0.1
O=[N+]([O-])c1ccc(SCc2c(F)cccc2Cl)cc1	-1.5	/
COc1ccccc1C1C(C(=O)Nc2ccc(Br)cn2)=C(C)NC2=C1C(=O)CCC2 (configuration not stated)	3.5	/
CCN(CC)c1ccc(NC(=O)c2ccc(OC)c(OC)c2)cc1	/	0.55
O=S(=O)(c1ccc(Cl)cc1)c1nc(/C=C/c2ccccc2)oc1NCc1ccco1	71	/
COc1ccc(S(=O)(=O)Oc2ccc(-c3ccccc3)c(F)c2)cc1	-0.56	/
N#C/C(=C\c1ccc(Br)o1)c1nc(-c2cc3c(ccc4ccccc43)oc2=O)cs1	1.4	/
FC(F)(F)c1ccnc(Oc2ccc(C3=NCCS3)cc2)c1	11	0.1
NC(=O)c1cn(-c2ccccc2)nc1N	/	-0.25
CCSc1nc2sc3c(c2c(=O)n1-c1ccc(OC)cc1)CC(C(C)C)OC3 (configuration not stated)	4	0.2
CN(C(=O)c1cnn2c(C(F)F)cc(-c3ccccc3)nc12)C1CCCCC1	/	-0.65
COC(=O)c1ccc(S(=O)(=O)N2CCN(c3ccc(C(F)(F)F)cn3)CC2)n1C	1.6	0.15
CN(CCNC(=O)c1cc2c(s1)CS(=O)(=O)C2)C1CCCCC1	-0.62	1.3
O=C(Cn1ccc(C(F)(F)F)n1)NC1CCCc2ccccc21 (configuration not stated)	/	-0.3
Cc1ccsc1C(N)=S	-1.2	-0.8
Cc1n[nH]c(=S)n1/N=C\c1ccco1	-1.1	-0.65
Cc1ccc(S(=O)(=O)c2c(C)cc(C)nc2Oc2cccc(C)c2C)cc1	-0.23	/
CC(C)(C)C1CCc2onc(C(=O)NCc3ccc(F)cc3)c2C1 (configuration not stated)	0.74	-0.25
CC1=C(C(=O)Nc2cccc(C(=O)N3CCN(c4ccc(F)cc4)CC3)c2)SCCO1	-0.21	0.2
COc1cccc(C(=O)N2CCN(c3ncccc3C#N)CC2)c1	68	-0.4
O=C(CSc1ccncc1)N1CCN(S(=O)(=O)c2ccc3c(c2)CCC3)CC1	/	-0.55
Cc1ccc(NS(=O)(=O)c2ccc(N3C(=O)c4ccccc4C3=O)cc2)cc1C	0.035	0.35
COc1ccc(N=c2oc3ccc(OC)cc3cc2C(N)=O)cc1	0.65	0.5
O=C(Nc1nnc(CCS(=O)(=O)c2ccc(Br)cc2)s1)c1ccc(F)cc1	-0.28	/
Cc1cc(C)nc(N2C(=O)CC(C(=O)O)NC2=NCCc2c[nH]c3ccccc23)n1 (configuration not stated)	-0.005	0.05
COC(=O)c1ccc(CSc2nnc(CNC(=O)c3ccco3)o2)o1	-0.38	-0.8
NC(=O)CSc1nc2c(c(=O)n1-c1cccc(Br)c1)C1(CCCCC1)Cc1ccccc1-2	0.63	/
COC(=O)C1=CN(CCOC23CC4CC(CC(C4)C2)C3)C=C(C(=O)OC)C1c1ccc(OC)cc1	-0.3	/
COc1ccc(C(=O)c2ccc(F)cc2)cc1	-1	2.4
N#Cc1cc(-c2cccc(Cl)c2)cn(Cc2cccc(Cl)c2)c1=O	2	/
COC(C(=O)NCc1ccc(Cl)cc1Cl)c1ccccc1 (configuration not stated)	0.44	-0.3

# Following part
canonical_smiles	CapD inh	AID504770
O=C(Nc1ncccc1O)c1c(O)c2cccc3c2n(c1=O)CC3	-0.57	-0.05
O=C(NCc1ccc2c(c1)CCO2)c1ccc2nsnc2c1	-0.095	-0.85
CCCNc1nc(-c2ccccc2)cs1	-1.1	-0.65
CN(Cc1cnc2nc(N)nc(N)c2n1)c1ccc(C(=O)N[C@@H](CCC(=O)O)C(=O)O)cc1	-0.12&-0.42	/
Cc1ccccc1OCCn1cc(/C(N)=N/O)c2ccccc21	-0.15	-0.45
O=c1[nH]cnc2scc(-c3ccccc3)c12	-0.57	/
CC1=C(C(=O)OC(C)C)C2(C(=O)Nc3ccccc32)C(C(=O)OC(C)(C)C)=C(N)O1 (configuration not stated)	-0.05	/
N#Cc1cc2c(nc1SCC(=O)NCc1ccc(F)cc1)C1CCN2CC1	0.81	0.55
Cc1cccc(-n2[nH]c(=S)sc2=S)c1	/	-1.1
CCOC(=O)c1ccc2cccnc2n1	-0.35	/
Cc1cc[n+](CC2OCc3ccccc3CO2)cc1	-0.075	1.1
N#Cc1c(NC(=O)CN2CCCCC2)sc2c1CCC2	/	-0.4
CCCCN1C(=O)C(O)(CC(=O)c2ccc(C)cc2)c2ccccc21 (configuration not stated)	0.16	-0.25
CCOC(=O)C1=C(N)N(c2ccc(Br)cn2)C2=C(C(=O)CCC2)C1c1ccc2c(c1)OCO2 (configuration not stated)	0.95	/
CC(C)(C)c1cc(N)n2nc(C(C)(C)C)cc2n1	0.24	0.55
Cc1ccc(C(C(=O)NCC2CCCO2)N(Cc2ccc3c(c2)OCO3)C(=O)c2ccc(-c3ccccc3)[nH]2)o1 (configuration not stated)	/	0.3
O=C(NCCC(c1ccccc1)c1ccccc1)c1cccnc1Cl	-0.35	2.3
CN1CCC(=NN=C(c2ccccc2)c2ccccc2)CC1	/	-0.05
Cc1ccc(C(=O)N(C)CCC#N)cc1C	-0.33	1.6
Cc1cc(C)c(C2=NON3N(C(=O)C(C)C)c4ccccc4N23)c(C)c1	-0.98	/
CNc1c(C(=O)c2ccc(F)cc2)sc(N)c1C#N	-1.7	0.95
CC(=O)Nc1cc(C(=O)N2CCC3(CC2)OCCO3)ccc1S(=O)(=O)c1ccc(Cl)cc1	0.43	0.15
COC(=O)c1ccc(NC(=O)CNC(=O)C2CCCCC2)cc1	0.2	-0.15
CN(Cc1ccccc1)Cc1c(F)cccc1F	0.1	-1.6
COc1cc(CCC(=O)OCC(=O)N2CC(=O)Nc3ccccc32)cc(OC)c1OC	/	0.5

# Arranged by length of the SMILES (highest first): part of the list above.
canonical_smiles	CapD inh	AID504770
CC(=O)Nc1cc(C(=O)N2CCC3(CC2)OCCO3)ccc1S(=O)(=O)c1ccc(Cl)cc1	0.43	0.15
CCc1cc2c3c(c(=O)oc2cc1OC(C)C(=O)OC)CCCC3 (configuration not stated)	43	/
C=C1SC(Nc2c(C)cccc2C)=NC1(C)C	-0.3	/

# Later entries.
canonical_smiles	CapD inh	AID504770
Cc1noc(C)c1CSc1ccccc1C(=O)Nc1ccccc1N1CCCC1	/	-0.35
CCOC(=O)c1ccc2nc(CCC(=O)O)c(=O)n(CC)c2c1	/	0.95
O=C(NCC(=O)c1cccs1)c1ccc(CSc2ccccc2)o1	-0.44	-0.7
CC(C)(C)c1ccc(C(=O)OCc2ccc3c(c2)OCO3)s1	0.025	-1.2
CC1CCCCN1CC(=O)c1cc(Cl)ccc1Cl (configuration not stated)	/	-1.1
C=CC[C@@H]1/C=C(\C)C[C@H](C)C[C@H](OC)[C@H]2O[C@@](O)(C(=O)C(=O)N3CCCC[C@H]3C(=O)O[C@H](/C(C)=C/[C@@H]3CC[C@@H](O)[C@H](OC)C3)[C@H](C)[C@@H](O)CC1=O)[C@H](C)C[C@@H]2OC	-1.9	/
O=c1oc2ccccc2n1CC1CCCN1S(=O)(=O)c1ccc(-n2cnnn2)cc1 (configuration not stated)	-0.28	-1
CCN=c1scc(-c2ccc3c(c2)NC(=O)CO3)n1N=C1CCCC1	/	-0.1
COc1ccc(-n2c(=O)c3c4c(sc3n(CC(=O)Nc3cc(C)[nH]n3)c2=O)CCCC4)c(OC)c1	-0.47	0.25
CN1N=C2c3ccccc3CCC2C1c1cccs1 (configuration not stated)	7.2	-0.55
O=C(c1c(F)c(F)c(F)c(F)c1F)N(CCO)Cc1ccccc1	0.1	-1
COc1ccc(OC)c(N2C(=N)/C(=C(/O)c3ccccc3)C(c3cc(OC)c(OC)c(OC)c3)C3=C2CC(C)(C)CC3=O)c1 (configuration not stated)	-0.09	/
Cc1sc2nc(-c3ccc(C(C)(C)C)cc3)oc(=O)c2c1C	-0.49	/
CSc1nccc(-c2sc(-c3ccc(Cl)cc3)nc2C)n1	8.7	0
CCCCN1CCC(O)(c2ccccc2)C(C(=O)c2ccccc2)C1 (configuration not stated)	0.31	-0.55
CC(=O)Nc1c2c(nn1-c1ccc(C)cc1)CSC2	/	-0.3
CCOc1ccc(C2(CC(=O)Nc3ccccc3)C(=O)c3ccccc3C2=O)cc1OC	-0.33	0.25
CCCNS(=O)(=O)c1ccc(OCC(=O)NCc2ccco2)cc1	/	0.75
CCOC(=O)C1=C(C)NC2=C(C(=O)c3ccccc32)C1c1ccccc1OCc1ccc(F)cc1 (configuration not stated)	0.11	/
